Compound activity: PubChem BioAssay, Broad Institute
Ecoli rRNA inh: inhibits bacterial ribosomal RNA function over humanized ribosomes; hit rate 1.6% among 350,000; E. coli WT GFP vs humanized-ribosome RFP mutants, fluorescence, 24 h; active compounds read low; DMSO median 0, no signal -100; GFP signal change (wild-type ribosome), % (no concentration beside the values);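 active = significant combined selectivity score with lowered wild-type GFP, culture density cut under 30%, mutant RFP and density less affected; inactive = any of these conditions unmet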; also: one replicate is shown; some compounds called inactive have numbers as strong as hits
Ecoli rRNA inh OD600: recorded beside Ecoli rRNA inh, whose call it bears; OD600 change, %; measured here: OD600 growth;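 optical density of the mix in the first replicate; 0 = DMSO median and -100 = no signal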
Ecoli rRNA inh RFP: recorded beside Ecoli rRNA inh, whose call it bears; RFP signal change, %; measured here: RFP humanized mutant strains;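 first replicate; 0 = DMSO median and -100 = no signal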
* hit, by the source's call; & = joins results of further samples. The list is partial (hit frequency here may not be typical).

Ecoli rRNA inh	Ecoli rRNA inh OD600	Ecoli rRNA inh RFP	Compound
-2.8	3.7	0.7	COCC(=O)N1CC2(C1)CN(C(=O)Nc1ccccc1F)[C@H](CO)c1c2c2ccc(OC)cc2n1C
0.9	-0.9	-0.1	C[C@@H]1CN([C@H](C)CO)C(=O)Cc2cc(NS(C)(=O)=O)ccc2O[C@H]1CN(C)C(=O)Nc1ccc(C(F)(F)F)cc1
1.1	-3.8	0.1	C[C@H]1CN([C@@H](C)CO)C(=O)c2cc(NS(=O)(=O)c3cn(C)cn3)ccc2O[C@@H]1CN(C)S(=O)(=O)c1cccs1
-8.2	-9.5	3.1	COc1cccc(NC(=O)C[C@@H]2CC[C@@H]3[C@H](COc4ccc(NS(=O)(=O)c5cccc(F)c5)cc4C(=O)N3C)O2)c1
6.1	6.8	-1.6	O=NN(Cc1cccnc1)C(=O)NC1CCCCC1
4.3	-10.4	1.9	Cn1cnc(S(=O)(=O)N2CCCCN3[C@@H](CO)[C@@H](c4ccc(-c5ccc(F)cc5)cc4)[C@@H]3C2)c1
-2.6	5.6	0.4	C[C@@H]1CN([C@H](C)CO)C(=O)CCCn2cc(nn2)CO[C@H]1CN(C)Cc1ccccc1
6.0&5.6	6.7&4.5	1.6&2.0	COc1cccc(S(=O)(=O)N(C)C[C@@H]2Oc3ncc(Br)cc3C(=O)N([C@H](C)CO)C[C@@H]2C)c1
-2.1	-3.2	1.8	CCCNC(=O)Nc1ccc2c(c1)C(=O)N(C)[C@H]1CC[C@@H](CC(=O)NCc3ccccc3)O[C@@H]1CO2
0.8	5.2	-1.0	C[C@H](CO)N1C[C@H](C)[C@H](CN(C)Cc2ccncc2)Oc2c(NC(=O)NC3CCCCC3)cccc2C1=O
0.1	2.5	1.9	C[C@@H]1CN([C@H](C)CO)C(=O)Cc2cc(N(C)C)ccc2O[C@@H]1CN(C)C(=O)Nc1cccc2ccccc12
0.4	3.3	-0.4	COc1ccc(S(=O)(=O)Nc2ccc3c(c2)C(=O)N([C@@H](C)CO)C[C@H](C)[C@H](CN(C)C(=O)c2ccncc2)OCCCC[C@H](C)O3)cc1
-0.1	-6.2	-0.7	C[C@@H]1CN([C@@H](C)CO)C(=O)c2cccc(NC(=O)Nc3ccc(F)cc3)c2O[C@@H]1CN(C)S(C)(=O)=O
6.7	10.4	-2.9	CN(C)C(=O)c1cccc(-c2ccc([C@@H]3[C@H](CO)N4CCCCN(CC5CCOCC5)C[C@@H]34)cc2)c1
5.7	11.5	-3.0	COc1ccc(NC(=O)C2Cc3c(-c4cccc(C(N)=O)c4)ccnc3O2)cn1 (stereo unspecified)
-1.2	6.7	5.3	C[C@@H]1COc2cccc(N3CCSCC3)c2S(=O)(=O)N1
0.2	8.6	15.8	COCCNc1nc(NCCN2CCNC2=O)c2sc(-c3ccccc3)cc2n1
2.8	3.8	-1.4	C[C@@H]1CN([C@@H](C)CO)C(=O)Cc2cc(NC(=O)C3CC3)ccc2O[C@H]1CN(C)S(=O)(=O)c1cn(C)cn1
1.9	5.0	-6.8	O=S1(=O)C=C[C@H](COCc2ccccc2)N1
-0.8	0.9	-2.6	C[C@H](CO)N1C[C@H](C)[C@H](CN(C)C(=O)C2CC2)Oc2cc(C#Cc3ccccn3)ccc2S1(=O)=O
0.0	2.9	1.4	CCCC#Cc1ccc([C@@H]2[C@@H](CO)N(C(=O)CN3CCOCC3)[C@H]2C#N)cc1
2.8	-3.5	-0.9	C[C@@H]1CN([C@@H](C)CO)C(=O)c2cc(C#CC3CCCC3)cnc2O[C@@H]1CN(C)C(=O)C1CC1
0.8	7.0	-1.9	O=C(c1ccccn1)N1CC2(C1)[C@H](c1ccccc1)[C@H](CO)N2C(=O)CC1CC1
2.5	9.4	4.3	O=C(Cc1ccc(Cl)cc1)NCC(=O)N1CCC2(CC1)NCCc1[nH]cnc12
-2.7	-8.9	0.5	C[C@@H]1CN([C@@H](C)CO)C(=O)c2cccc(N(C)C)c2O[C@@H]1CN(C)Cc1ccc(Oc2ccccc2)cc1

The list continues.
Ecoli rRNA inh	Ecoli rRNA inh OD600	Ecoli rRNA inh RFP	Compound
-2.3	7.0	-2.2	COc1ccccc1-c1cn(CC[C@H]2CC[C@@H](NC(=O)CCN3CCCCC3)[C@@H](CO)O2)nn1
-2.3	4.1	-1.8	C[C@@H]1CCCCO[C@H](CN(C)C(=O)c2ccccc2)[C@@H](C)CN([C@@H](C)CO)C(=O)c2cc(N(C)C)ccc2O1
-13.3	-11.3	6.0	Cc1cccc(S(=O)(=O)N[C@@H]2CC[C@@H](CCNC(=O)Nc3cc(F)ccc3F)O[C@H]2CO)c1
-1.6	6.7	-2.6	COc1ccc(NC(=O)Nc2ccc3c(c2)C(=O)N([C@@H](C)CO)C[C@@H](C)[C@@H](CN(C)C(=O)Nc2ccccc2)OCCCC[C@@H](C)O3)cc1
-5.5	-2.7	6.7	Cc1cc2nc(-c3ccc(F)cc3)c(Cc3ccsc3)n2c(C)c1Br
1.9	7.2	-2.4	COc1ccc(C(=O)N2CCOC2CNC(=O)C(=O)NCc2ccccn2)cc1 (stereo unspecified)
-14.6	-14.4	5.7	COc1ccccc1NC(=O)N1CCCCN2[C@H](CO)[C@@H](c3ccc(-c4cccc(C#N)c4)cc3)[C@@H]2C1
1.9	6.9	6.0	O=C(CN1CCOCC1)N1CC[C@@H]2[C@H]1c1cc(-c3ccccc3F)ccc1N[C@@H]2CO
-5.2	-8.4	4.1	CCCC#Cc1ccc2c(c1)O[C@H](CN(C)C(=O)CC)[C@H](C)CN([C@H](C)CO)S2(=O)=O
-1.2&-4.4	-10.2&-3.8	-12.3&0.4	COC(=O)C[C@H]1C[C@@H]2c3cc(NC(=O)Nc4ccc(F)cc4)ccc3O[C@@H]2[C@@H](CO)O1
-2.9	1.8	1.3	C[C@@H]1CN([C@@H](C)CO)C(=O)c2cccc(NC(=O)NC3CCCCC3)c2O[C@@H]1CN(C)Cc1ccc(C(=O)O)cc1
2.3	3.0	-1.4	C/C=C/c1ccc([C@H]2[C@@H](CO)N(C(=O)CC)[C@@H]2CN(C)C(=O)NC(C)C)cc1
3.3	3.3	-1.0	COc1ccc(S(=O)(=O)N2C[C@@H](O)COC[C@@H]3O[C@@H](CC(=O)NCCN4CCCCC4)CC[C@H]32)cc1
-1.2	2.3	-2.6	COc1ccc(S(=O)(=O)N(C)C[C@@H]2Oc3ccc(NC(=O)CCCCCC(=O)Nc4ccccc4N)cc3CC(=O)N([C@@H](C)CO)C[C@@H]2C)cc1
2.7	9.0	1.5	C[C@@H]1CN([C@H](C)CO)C(=O)c2cc(NC(=O)CCN3CCOCC3)ccc2O[C@H]1CN(C)Cc1ccccc1

A second format for part of the listing above:
Second line of a record – Ecoli rRNA inh | Ecoli rRNA inh OD600 | Ecoli rRNA inh RFP
- O=C(c1ccccn1)N1CC2(C1)[C@H](c1ccccc1)[C@H](CO)N2C(=O)CC1CC1
→ 0.8 | 7.0 | -1.9
- O=C(Cc1ccc(Cl)cc1)NCC(=O)N1CCC2(CC1)NCCc1[nH]cnc12
→ 2.5 | 9.4 | 4.3
- C[C@@H]1CN([C@@H](C)CO)C(=O)c2cccc(N(C)C)c2O[C@@H]1CN(C)Cc1ccc(Oc2ccccc2)cc1
→ -2.7 | -8.9 | 0.5
- COc1ccccc1-c1cn(CC[C@H]2CC[C@@H](NC(=O)CCN3CCCCC3)[C@@H](CO)O2)nn1
→ -2.3 | 7.0 | -2.2
- C[C@@H]1CCCCO[C@H](CN(C)C(=O)c2ccccc2)[C@@H](C)CN([C@@H](C)CO)C(=O)c2cc(N(C)C)ccc2O1
→ -2.3 | 4.1 | -1.8
- Cc1cccc(S(=O)(=O)N[C@@H]2CC[C@@H](CCNC(=O)Nc3cc(F)ccc3F)O[C@H]2CO)c1
→ -13.3 | -11.3 | 6.0
- COc1ccc(NC(=O)Nc2ccc3c(c2)C(=O)N([C@@H](C)CO)C[C@@H](C)[C@@H](CN(C)C(=O)Nc2ccccc2)OCCCC[C@@H](C)O3)cc1
→ -1.6 | 6.7 | -2.6
- Cc1cc2nc(-c3ccc(F)cc3)c(Cc3ccsc3)n2c(C)c1Br
→ -5.5 | -2.7 | 6.7
- COc1ccc(C(=O)N2CCOC2CNC(=O)C(=O)NCc2ccccn2)cc1 (stereo unspecified)
→ 1.9 | 7.2 | -2.4
- COc1ccccc1NC(=O)N1CCCCN2[C@H](CO)[C@@H](c3ccc(-c4cccc(C#N)c4)cc3)[C@@H]2C1
→ -14.6 | -14.4 | 5.7
- O=C(CN1CCOCC1)N1CC[C@@H]2[C@H]1c1cc(-c3ccccc3F)ccc1N[C@@H]2CO
→ 1.9 | 6.9 | 6.0
- CCCC#Cc1ccc2c(c1)O[C@H](CN(C)C(=O)CC)[C@H](C)CN([C@H](C)CO)S2(=O)=O
→ -5.2 | -8.4 | 4.1
- COC(=O)C[C@H]1C[C@@H]2c3cc(NC(=O)Nc4ccc(F)cc4)ccc3O[C@@H]2[C@@H](CO)O1
→ -1.2&-4.4 | -10.2&-3.8 | -12.3&0.4
- C[C@@H]1CN([C@@H](C)CO)C(=O)c2cccc(NC(=O)NC3CCCCC3)c2O[C@@H]1CN(C)Cc1ccc(C(=O)O)cc1
→ -2.9 | 1.8 | 1.3
- C/C=C/c1ccc([C@H]2[C@@H](CO)N(C(=O)CC)[C@@H]2CN(C)C(=O)NC(C)C)cc1
→ 2.3 | 3.0 | -1.4

For convenience, two of the compounds above:
Ecoli rRNA inh	Ecoli rRNA inh OD600	Ecoli rRNA inh RFP	Compound
-2.3	7.0	-2.2	COc1ccccc1-c1cn(CC[C@H]2CC[C@@H](NC(=O)CCN3CCCCC3)[C@@H](CO)O2)nn1
-2.3	4.1	-1.8	C[C@@H]1CCCCO[C@H](CN(C)C(=O)c2ccccc2)[C@@H](C)CN([C@@H](C)CO)C(=O)c2cc(N(C)C)ccc2O1
